Compound activity deposited in PubChem by several laboratories.
E coli growth: E. coli growth inhibition; Escherichia coli growth, OD600, 23 h; hits give low values; OD600 absorbance (concentration not given with the values); 0.21% of 330,000 active;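 active means OD600 absorbance below the run mean of sample wells minus 3.6 SD, in any replicate, cut at about 0.56 in these data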;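 further: stock transfer was 300 nL into about 60 µL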
LANA-H2A inh: blocks KSHV LANA binding to histone H2A/H2B. Q9QR71. cell-free LANA-H2A/H2B peptide, fluorescence polarization. inhibition, % (concentration not given with the values). 0.6% of 320,000 active. AID 2629; in the data active means inhibition mostly above about 10%, no sharp cut-off; inactive means mostly below about 6.7%;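 further: stock transfer was 7.5 nL into about 10 µL; 0% = median of vehicle wells and 100% = median of positive control wells; one replicate is shown; the record names a cut of 25% in any replicate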
Vif TR-FRET: inhibitors of Vif binding to APOBEC3G peptide, primary screen, biochemical, TR-FRET, GST-Vif 1-94, biotin-A3G peptide, dose response retest (AID 1117319); TR-FRET GST-Vif / biotin-A3G peptide binding; higher % means a stronger effect; test concentration not given here; strong numbers were not always called active; inhibition, %; hits with a dose series show IC50 in µM; 0.57% of 260,000 active;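 active means above the screen mean plus three standard deviations and confirmed in dose response; inconclusive means results disagree or hit not tested in dose response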;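 further: Vif residues 1-94 fused to GST binding biotinylated APOBEC3G peptide 110-148; 0% = full assay without inhibitor and 100% = GST in place of GST-Vif; retest series ran down from 100 µM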
B2AR ag: agonists of human beta-2 adrenergic receptor inducing internalization; P07550; Am2.2-beta2AR cells, FAP receptor internalization, flow cytometry; reference of the scale not given here; response, % (test concentration not listed); 0.43% of 340,000 active; AID 504454;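 active means response above a set limit, near 3 SD of response in nonfluorescent compounds, cut at about 42% in these data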;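 further: stock transfer was 100 nL into about 11 µL; a reference agonist was the positive control; negative values mostly stem from fluorescent compounds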
Target sequence (P07550 whole entry, looked up): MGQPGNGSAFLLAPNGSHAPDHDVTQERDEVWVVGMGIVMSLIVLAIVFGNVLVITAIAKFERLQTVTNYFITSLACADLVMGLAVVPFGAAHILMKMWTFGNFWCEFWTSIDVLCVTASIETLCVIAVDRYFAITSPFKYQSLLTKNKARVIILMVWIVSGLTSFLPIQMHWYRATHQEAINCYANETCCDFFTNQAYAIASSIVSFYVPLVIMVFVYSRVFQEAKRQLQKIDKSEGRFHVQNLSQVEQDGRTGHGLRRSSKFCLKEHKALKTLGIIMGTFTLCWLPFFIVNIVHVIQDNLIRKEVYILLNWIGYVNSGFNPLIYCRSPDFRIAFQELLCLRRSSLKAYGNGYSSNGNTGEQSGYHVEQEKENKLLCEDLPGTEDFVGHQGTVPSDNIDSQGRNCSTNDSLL
HNF4A DNA FP: change in binding of human HNF4 alpha to DNA; P41235; HNF4a-FITC DNA binding, fluorescence polarization, 1 h; activity change, % at 10 µM; 0.3% of 360,000 active; AID 1224865; in the data active means activity change above about 30%, passing the limit was not always enough;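 further: controls were the assay level and a saturating level of protein; the project sought stronger binding though the title names inhibitors; some compounds called inactive have numbers as strong as hits; positive values seem to mean higher polarization but the record does not say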
Bfl-1 A1 inh: inhibitors of the anti-apoptotic protein A1, read as caspase activation; MEF A1-2A-BIM cells, Caspase-Glo 3/7 luminescence, 3 h; percent of clofoctol response, vehicle zero; caspase activation, % (no concentration beside the values); 0.066% of 330,000 active;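 active means over half of replicate activation scores above 10%, or exactly half above 10 with the replicate mean above 10; inconclusive means replicate mean below 10 yet half the replicates above 10; inactive means over half of replicates below 10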;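 further: wells of about 30 µL received 50 nL stock; many hits fall short of the cut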
UCH37 inh: inhibitors of human deubiquitinating enzyme UCH37 | purified proteasome/UCH37, Ub-AMC cleavage fluorescence | inhibition, % (test concentration not listed) | 0.33% of 330,000 active | AID 588478;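 active means mean of two replicates above 20%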;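 further: 0% = compound-free wells with enzyme and 100% = wells lacking proteasome; stock transfer was 100 nL into about 20 µL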
Target sequence (Q9Y5K5 whole entry, looked up): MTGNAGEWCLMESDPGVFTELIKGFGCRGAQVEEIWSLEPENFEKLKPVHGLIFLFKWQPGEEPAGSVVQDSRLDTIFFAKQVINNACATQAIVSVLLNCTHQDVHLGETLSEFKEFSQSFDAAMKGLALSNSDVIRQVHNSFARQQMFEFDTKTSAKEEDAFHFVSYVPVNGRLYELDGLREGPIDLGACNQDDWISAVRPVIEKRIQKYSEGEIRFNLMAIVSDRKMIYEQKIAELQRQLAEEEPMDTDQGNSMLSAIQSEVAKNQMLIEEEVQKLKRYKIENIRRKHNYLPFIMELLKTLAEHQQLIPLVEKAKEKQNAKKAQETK
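Material: Human UCH37 enzyme supplied as purified proteasome complex | Schedule: 30 min preincubation with enzyme, 25 min cleavage at room temperature | Detection: AMC fluorescence 355/460 nm | Measure: % inhibition of Ub-AMC cleavage fluorescence | Controls: Wells without proteasome as full block, compound-free enzyme plus substrate as uninhibited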
Active calls of the source: *; ? = inconclusive; · = not tested or not shown; & = joins results of further samples.

Value order – LANA-H2A inh | B2AR ag | Bfl-1 A1 inh | UCH37 inh | Vif TR-FRET | HNF4A DNA FP | E coli growth
(1) Cc1ccc(NC(=O)c2nnn(CC(=O)Nc3ccccc3)c2N)cc1C
  -2.4 | 13 | -1.2 | 4.1 | -6% | -0.5 | 0.73
(2) CNC(CC(=O)c1ccc([N+](=O)[O-])cc1)C(Cl)(Cl)Cl (stereo not given)
  -7.1 | 91* | 2.5 | 4.8 | 27% | -3.5 | 0.61
(3) O=S(=O)(c1ccccc1)N1CCCC1c1cccs1 (stereo not given)
  -3.7 | 0 | -0.4 | · | -3% | 2.5 | ·
(4) COc1cc(SC)ccc1C(=O)N1CCN(Cc2ccccc2)CC1
  -2.4 | -10 | 0.1 | 3.9 | -5% | 1.5 | 0.66
(5) NC1=NC2(CCCCC2)N(c2ccc(F)cc2F)C(N)=N1
  -2.7 | 17 | 1.1 | 1.8 | · | 1.8 | 0.69
(6) Cc1ccc2c(c1)c1c(n2CC(O)Cn2c(C)nc3ccccc32)/C(=N\O)CCC1 (stereo not given)
  -0.1 | 9 | 1.3 | · | 17% | -1.4 | ·
(7) O=C(NC(=O)c1cc(OCC(F)(F)F)ccc1OCC(F)(F)F)Nc1ccccc1
  4.6 | -4 | -0.3 | 2.0 | -5% | 3.2 | 0.67
(8) COC(=O)Nc1nc(Sc2ncc(C(F)(F)F)cc2Cl)n[nH]1
  6.5 | 0 | -0.6 | 0.6 | 4% | 4.0 | 0.69
(9) Cc1cc(C)c2cc(C(=O)Nc3ccc4c(c3)OCO4)[nH]c2c1
  0.9 | · | -0.5 | -5.5 | ? | · | 0.74
(10) Cc1cc(C(=O)Nc2ccccc2C(=O)O)ccc1NC(=O)COc1cccc(C)c1C
  -7.6 | 15 | -0.6 | -20 | · | 3.5 | 0.67
(11) COc1ccc(-n2nc(C(=O)N3CCCCC3)c(C)c(C#N)c2=O)cc1
  -1.9 | 2 | 0.1 | 5.9 | 8% | 0.7 | 0.71
(12) O=[N+]([O-])C1=CC=C2C(=NC3(CCCCC3)N2O)C1=NCCO
  -2.9 | -7 | 0.4 | 14 | 10% | 0.8 | 0.65
(13) COc1ccc(NC(=O)c2ccccc2NC(=O)c2ccco2)c(OC)c1
  1.5 | 1 | 0.6 | 2.0 | 16% | 2.7 | 0.69
(14) COc1ccc(-n2c(=S)[nH]c3cc(C(=O)N(C)Cc4ccccc4)ccc3c2=O)cc1
  -3.1 | -8 | 0.4 | 2.3 | 2% | 1.9 | 0.68
(15) CCCCNC(=O)C1CC(=O)N(C2CCCCC2)C1 (stereo not given)
  -6.7 | 11 | -0.1 | -0.3 | 18% | 1.2 | 0.7
(16) COc1ccccc1CNC(=O)C1COc2ccccc2O1 (stereo not given)
  -3.0 | -1 | -0.4 | 0.5 | -4% | -1.9 | 0.68
(17) CN1CCC(N(C)C(=O)c2cc(S(=O)(=O)N3CCOCC3)ccc2Cl)CC1
  0.6 | -5 | -0.2 | 1.5 | · | 5.8 | 0.69
(18) COCCSc1ccccc1C(=O)NCc1cccnc1
  2.1 | -3 | -0.4 | -0.5 | -1% | 4.0 | 0.65
(19) O=C(COC(=O)CCc1nc2ccccc2s1)Nc1nc(-c2ccccc2)cs1
  -387 | 14 | -3.8 | 5.8 | -12% | -0.8 | 0.72
(20) Cc1noc(C)c1C(=O)N1CCC(C(=O)c2ccccc2)CC1
  8.5 | 6 | 0.0 | 0.3 | · | 1.1 | 0.65

(next part)
Value order – LANA-H2A inh | B2AR ag | Bfl-1 A1 inh | UCH37 inh | Vif TR-FRET | HNF4A DNA FP | E coli growth
(21) Cc1cccc(C(=O)OC(C)CN2CCCC2)c1 (stereo not given)
  0.5 | -1 | 0.1 | 4.0 | · | -3.3 | 0.7
(22) O=C(CSc1n[nH]c(-c2ccccc2)n1)NCc1cccc(C(=O)O)c1
  -8.0 | 1 | 0.4 | -0.6 | 7% | -1.1 | 0.69
(23) Cc1cccc(C)c1NC(=O)CS(=O)CC(=O)NC1CCCc2ccccc21 (stereo not given)
  2.0 | 0 | 0.2 | 0.7 | 13% | 1.7 | 0.66
(24) CS/C(=C\[N+](=O)[O-])Nc1ccc(Cl)cc1
  2.6 | 3 | -0.3 | 2.2 | 3% | -1.4 | ·
(25) CC(C)=NNc1nc2c(c(=O)[nH]c(=O)n2C)n1CCc1ccccc1
  5.0 | 1 | -0.6 | -4.5 | ? | -11 | 0.66
(26) O=C(CNC(=O)c1ccccc1Br)NCCSc1ccc(Br)cc1
  3.4 | 4 | -0.4 | 0.0 | 2% | 0.7 | 0.69
(27) O=C(OCC(=O)N1CCN(S(=O)(=O)c2ccccc2)CC1)c1ccc([N+](=O)[O-])o1
  6.0 | 3 | 0.6 | 15 | · | -4.2 | 0.66
(28) COc1cnc(-c2ccccn2)nc1Oc1ccc(C(C)(C)C)cc1
  2.9 | -9 | 0.2 | 4.5 | · | -2.0 | 0.58
(29) COc1ccc(C2N(C(=O)C(F)(F)F)C(C)CN2S(=O)(=O)c2ccc(C)cc2)cc1 (stereo not given)
  2.1 | 18 | -0.1 | 1.2 | · | 4.2 | 0.71
(30) O=C(OCC(=O)N1CCc2ccccc21)c1cccnc1Cl
  7.5 | -5 | -6.8 | -2.6 | -3% | 2.2 | 0.71
(31) O=C1CCC/C(=N/NC(=O)c2cc(NS(=O)(=O)c3cccs3)cc(NS(=O)(=O)c3cccs3)c2)C1
  -3.3 | -9 | -0.2 | · | · | 8.2 | ·
(32) Cc1cccc(NC(=O)NNC(=O)c2nn(C)cc2Br)c1
  0.3 | 1 | 0.0 | 2.8 | 5% | -0.3 | 0.65
(33) COc1ccc(C(=O)NC2CC3CCCC(C2)N3CC(C)C)cc1OC (stereo not given)
  0.8 | -7 | -0.9 | 4.1 | -8% | -4.5 | 0.67
(34) Cn1c(CNC(=O)c2ccccc2F)nnc1SCC(=O)N1CCN(c2ccccc2)CC1
  2.6 | 3 | -1.1 | -0.8 | 6% | 2.1 | 0.69
(35) CC1=CSC2=NC(=O)/C(=C\c3cccn3-c3ccccc3)C(=N)N12
  -10 | -4 | -0.4 | -0.9 | ? | 7.9 | 0.63
(36) CN(C)S(=O)(=O)c1ccc(C(=O)N2CCOCC2)cc1
  0.6 | 7 | -0.6 | 1.0 | 10% | -1.1 | 0.7
(37) Cc1ccc(Nc2nc(C(=O)N3CCC(C(=O)NCCN4CCOCC4)CC3)cs2)cc1
  -0.1 | 2 | -0.6 | 1.8 | 2%&-6% | 1.2 | 0.71
(38) Cc1c(CCC(=O)N2CCC[C@H]2C(=O)O)c(=O)oc2cc3oc4c(c3cc12)CCCC4
  3.1 | -27 | -0.2 | -38 | · | 2.1 | 0.71
(39) Cc1ccc(S(=O)(=O)N2CCN(C(=O)COC(=O)c3ccc(C(C)(C)C)cc3)CC2)c(C)c1
  -0.9 | 3 | 0.6 | · | -6% | -1.7 | ·
(40) OCCC1CN(CCCn2cccn2)CCN1Cc1ccccc1 (stereo not given)
  -2.3 | 1 | 1.5 | 2.8 | · | 4.8 | 0.68

The last 2 compounds of the section before lead into the next.
Value order – LANA-H2A inh | B2AR ag | Bfl-1 A1 inh | UCH37 inh | Vif TR-FRET | HNF4A DNA FP | E coli growth
(39) Cc1ccc(S(=O)(=O)N2CCN(C(=O)COC(=O)c3ccc(C(C)(C)C)cc3)CC2)c(C)c1
  -0.9 | 3 | 0.6 | · | -6% | -1.7 | ·
(40) OCCC1CN(CCCn2cccn2)CCN1Cc1ccccc1 (stereo not given)
  -2.3 | 1 | 1.5 | 2.8 | · | 4.8 | 0.68
(41) O=C(CC1C(=O)NCCN1C(=O)Nc1ccc(Cl)cc1)Nc1ccc(F)cc1 (stereo not given)
  0.6 | -2 | -2.3 | 2.1 | 15% | -0.9 | 0.63
(42) COc1ccc(CN2CCNC(=O)C2CC(=O)NCc2cc(C)n(C)n2)c(F)c1 (stereo not given)
  4.2 | -1 | 1.3 | -3.2 | · | 3.6 | 0.74
(43) c1ccc(-c2ccc(CN3C[C@@H]4C(c5ccccc5)C5(c6cccnc6)CC4(C5)[C@H]3c3ccccc3)cc2)cc1 (stereo not given in full)
  0.1 | -2 | -0.5 | 0.1 | · | 4.1 | ·
(44) CCOC(=O)COc1c(-c2ccc(OC)cc2)oc2ccccc2c1=O
  -5.0 | 3 | 0.7 | -93 | 12% | 5.6 | 0.71
(45) CC(=O)Nc1cccc(OCc2cnc(Cl)s2)c1
  0.1 | 2 | 0.8 | -0.7 | · | -6.1 | 0.67
(46) O=C(CN(Cc1ccccc1)C(=O)c1ccco1)NCc1ccc(F)cc1
  3.1 | 18 | 0.7 | -2.4 | -6% | 0.6 | 0.72
(47) CCc1ccc(CN(C)C(=O)c2cccc(S(=O)(=O)Nc3ccccc3OC)c2)cc1
  · | 4 | · | 1.1 | 5% | -1.6 | 0.63
(48) CN(CC(=O)NC1CCCc2ccccc21)S(=O)(=O)c1cccs1 (stereo not given)
  2.5 | 1 | 0.7 | 1.7 | -2% | 0.7 | 0.66
(49) Fc1cccc(Cl)c1Cn1ncc2ccccc21
  0.7 | 5 | -0.2 | 2.0 | -3% | 2.6 | 0.67
(50) CCc1csc(CCNC(=O)C2CCC(=O)N(Cc3cccc(C(F)(F)F)c3)C2)n1 (stereo not given)
  7.4 | -6 | -0.3 | 1.4 | 9% | 0.9 | 0.72
(51) CSc1ncccc1C(=O)OCC(=O)N1CCc2ccccc21
  5.5 | -5 | -0.3 | 4.5 | -20% | 5.8 | 0.72
(52) Cc1ccc(C)c(SCC(=O)c2ccc[nH]2)c1
  -2.1 | -3 | 0.3 | 6.5 | -5% | -3.1 | 0.67
(53) CCOc1cccc(C(=O)NC(=S)Nc2ccccc2)c1
  6.7 | -5 | -0.6 | 0.0 | 1% | -3.9 | 0.69
(54) Cc1ccccc1-n1nc2c(c1NC(=O)c1cc3ccccc3o1)CS(=O)(=O)C2
  0.2 | -2 | -0.5 | 1.5 | 1% | -7.2 | 0.65
(55) Cc1nnc(SCC(=O)Nc2ccc3c(c2)OCCO3)s1
  -2.0 | 0 | 0.2 | 0.4 | ? | -1.6 | 0.7
(56) CN(CC(=O)Nc1cccc(F)c1)C(=O)Cn1c(=O)cnc2ccccc21
  2.3 | 0 | 2.2 | 1.5 | -7% | -1.0 | 0.7
(57) CCOc1ccc(S(=O)(=O)Nc2cccc(C(=O)NCC(c3ccc(OC)cc3)N3CCOCC3)c2)cc1 (stereo not given)
  2.6 | -1 | 0.5 | 0.5 | -7% | 3.7 | 0.71
(58) O=C(Nc1ccc(Cl)cc1Cl)c1csc(-c2cccnc2)n1
  -0.4 | -17 | -0.6 | 1.5 | · | 5.1 | 0.67
(59) COc1ccc(N2CCN(C(=O)C3CCN(C(=O)c4cccc(Cl)c4)CC3)CC2)cc1
  0.4 | 0 | 0.3 | 2.9 | -7% | 2.9 | 0.7
(60) COc1ccc(-n2c(N)c(C(=O)NCc3ccco3)sc2=S)cc1
  -3.4 | 5 | -0.9 | 3.2 | -8% | 1.7 | 0.73

Next part:
Value order – LANA-H2A inh | B2AR ag | Bfl-1 A1 inh | UCH37 inh | Vif TR-FRET | HNF4A DNA FP | E coli growth
(61) O=C(NNC(=S)NC(=O)c1cccs1)c1ccc(O)cc1
  7.9 | -8 | 0.6 | 5.3 | · | -0.5 | 0.59
(62) CC(C)(C)[C@@H]1COC(=O)[C@H](Cc2ccc(F)cc2)C/C=C\C[C@@H](CC(=O)N(CCO)Cc2ccccc2)C(=O)N1
  -0.6 | -4 | 0.3 | 4.6 | · | 3.2 | ·
(63) CC(C(=O)O/N=C(\N)c1cccnc1)c1ccc([N+](=O)[O-])cc1 (stereo not given)
  -1.9 | -8 | 1.7 | 3.7 | -2% | 1.1 | 0.67
(64) CCOC(=O)c1nnsc1N
  2.7 | 6 | -0.3 | 3.6 | -11% | 2.9 | 0.69
